Compound activity deposited in PubChem by Fisher Drug Discovery Resource Center.
NPYLR7 ag: mosquito NPYLR7 agonism; AID 1259423; 0.15% of 270,000 active; activation, % at 10 µM; HEK293T NPYLR7/Galpha15, GCaMP6s calcium fluorescence; in the data active = activation above about 40%;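 also: 0% = vehicle and 100% = reference agonist at the receptor; some compounds past the cut are filed as inactive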
NPYLR7 ag max-min: also measured in NPYLR7 ag; calls as there; activation, %; measured here: Max-Min RFU normalised activation; some inactives read as strong as hits;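 span of the calcium signal over five minutes; 0% = vehicle and 100% = native peptide agonist; compound fluorescence can raise it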
* = called active by the depositor; & = joins results of further samples. Only part of the results is shown; count on the stated rates, not on these rows.

How did Cc1cc(N2CCCCC2)nc(Nc2ccc(NC(=O)C3CCCCC3)cc2)n1 do in these assays?
NPYLR7 ag: 10; NPYLR7 ag max-min: 2

What do the screens show for `CCC(C(=O)N(Cc1ccc(F)cc1)Cc1cc(NC(=O)c2ccccc2Cl)ccc1N(C)C)c1ccccc1` (stereo not drawn)?
NPYLR7 ag: 6; NPYLR7 ag max-min: 16

Results for COc1ccc(-c2cnc3ncnn3c2N2CCCN(C(=O)c3ccccc3F)CC2)cc1 ?
NPYLR7 ag: -3; NPYLR7 ag max-min: -6

What do the screens show for `COc1cc(-c2ccc(=O)[nH]n2)ccc1OC(F)F`?
NPYLR7 ag: 14&-8&0; NPYLR7 ag max-min: -2&-13&-2

What do the screens show for `CCNC(=O)CCN1CC(C)(C)C1(C)C`?
NPYLR7 ag: 7; NPYLR7 ag max-min: 3

How did O=C(Cc1ccc(Cl)cc1Cl)NCc1cccs1 do in these assays?
NPYLR7 ag: 7; NPYLR7 ag max-min: 5

Results for CC(C)n1cnnc1CN(C)c1nc(-c2cccnc2)nc2c1CNC2 ?
NPYLR7 ag: 22; NPYLR7 ag max-min: 18

How did CN(CCc1ccccn1)C(=O)c1cccnc1Oc1ccc(Cl)cc1 do in these assays?
NPYLR7 ag: -8; NPYLR7 ag max-min: -15

What do the screens show for `O=C(c1ccc2nc(C3CC3)oc2c1)N1CCC(N2CCSCC2)CC1`?
NPYLR7 ag: 2; NPYLR7 ag max-min: 0

What do the screens show for `COc1cc(-c2cc(C(=O)NCc3ccco3)c3ccccc3n2)cc(OC)c1OC`?
NPYLR7 ag: 20; NPYLR7 ag max-min: 6

What do the screens show for `CCc1csc(CNC(=O)c2ccc(N(C)Cc3ccon3)nc2)n1`?
NPYLR7 ag: 6; NPYLR7 ag max-min: 2

How did Cc1cc(=O)[nH]c(-n2nc(C)cc2NC(=O)c2cccc([N+](=O)[O-])c2)n1 do in these assays?
NPYLR7 ag: 6; NPYLR7 ag max-min: -2

What do the screens show for `COc1ccccc1-c1cc(C(=O)NC2CCN(Cc3ccccc3)CC2)n2nc(C(C)(C)C)cc2n1`?
NPYLR7 ag: 2; NPYLR7 ag max-min: 14

What do the screens show for `CN(Cc1ccc2nsnc2c1)C(=O)CC1(c2ccccc2F)CC(=O)N(C2CCCCC2)C1=O` (stereo not drawn)?
NPYLR7 ag: 23; NPYLR7 ag max-min: 4

Results for O=C(CN(C(=O)c1ccccc1)N1C(=O)CCC1=O)c1ccccc1 ?
NPYLR7 ag: -3; NPYLR7 ag max-min: 42

3 structures already listed, sorted by molecular weight, lowest first:
Results for CC(C)n1cnnc1CN(C)c1nc(-c2cccnc2)nc2c1CNC2 ?
NPYLR7 ag: 22; NPYLR7 ag max-min: 18

How did CN(CCc1ccccn1)C(=O)c1cccnc1Oc1ccc(Cl)cc1 do in these assays?
NPYLR7 ag: -8; NPYLR7 ag max-min: -15

What do the screens show for `CCC(C(=O)N(Cc1ccc(F)cc1)Cc1cc(NC(=O)c2ccccc2Cl)ccc1N(C)C)c1ccccc1` (stereo not drawn)?
NPYLR7 ag: 6; NPYLR7 ag max-min: 16

Reprinted from above for reference:
What do the screens show for `COc1cc(-c2cc(C(=O)NCc3ccco3)c3ccccc3n2)cc(OC)c1OC`?
NPYLR7 ag: 20; NPYLR7 ag max-min: 6

What do the screens show for `CCc1csc(CNC(=O)c2ccc(N(C)Cc3ccon3)nc2)n1`?
NPYLR7 ag: 6; NPYLR7 ag max-min: 2

How did Cc1cc(=O)[nH]c(-n2nc(C)cc2NC(=O)c2cccc([N+](=O)[O-])c2)n1 do in these assays?
NPYLR7 ag: 6; NPYLR7 ag max-min: -2

What do the screens show for `COc1ccccc1-c1cc(C(=O)NC2CCN(Cc3ccccc3)CC2)n2nc(C(C)(C)C)cc2n1`?
NPYLR7 ag: 2; NPYLR7 ag max-min: 14

What do the screens show for `CN(Cc1ccc2nsnc2c1)C(=O)CC1(c2ccccc2F)CC(=O)N(C2CCCCC2)C1=O` (stereo not drawn)?
NPYLR7 ag: 23; NPYLR7 ag max-min: 4

Results for O=C(CN(C(=O)c1ccccc1)N1C(=O)CCC1=O)c1ccccc1 ?
NPYLR7 ag: -3; NPYLR7 ag max-min: 42

Going on with the list:
How did C=c1ccccc1=C1C=NNC(N(CCO)C(C)C)=N1 do in these assays?
NPYLR7 ag: -3; NPYLR7 ag max-min: -5

Results for O=C(NC1CCN(C(=O)C=Cc2cnn(-c3ccccc3)c2)CC1)c1ccccc1 ?
NPYLR7 ag: 3; NPYLR7 ag max-min: -3

What do the screens show for `O=C1NCC2(CCCN(Cc3ccccc3-c3ccccc3)C2)O1` (stereo not drawn)?
NPYLR7 ag: 6; NPYLR7 ag max-min: 7

How did Cc1ccccc1NC(=O)N1CCSC1c1ccccc1F (stereo not drawn) do in these assays?
NPYLR7 ag: 13; NPYLR7 ag max-min: 27

How did C=CCNC(=O)CN1CCN(c2nc(C)nc3sc4c(c23)CCCC4)CC1 do in these assays?
NPYLR7 ag: 9; NPYLR7 ag max-min: 3

How did COc1cccc(C(=O)COC(=O)c2[nH]c(C)c(C(C)=O)c2C)c1 do in these assays?
NPYLR7 ag: 5; NPYLR7 ag max-min: 2

What do the screens show for `Cc1cc(C)c2[nH]c(O)c(N=NC(=O)COc3ccc(Cl)cc3Cl)c2c1`?
NPYLR7 ag: 2; NPYLR7 ag max-min: -5

What do the screens show for `O=C(NCCCN1CCOCC1)c1cc(-c2cccs2)nn1-c1ccccc1`?
NPYLR7 ag: 1; NPYLR7 ag max-min: 3

What do the screens show for `COc1cc2c(cc1OC)CN(S(=O)(=O)c1ccc(OC)c(N3CCN(C(=O)c4cc(Cl)cc(Cl)c4)CC3)c1)CC2`?
NPYLR7 ag: 3; NPYLR7 ag max-min: -3

How did Cc1ccn2c(=O)c(C(=O)NCCc3ccccc3)c(O)nc2c1 do in these assays?
NPYLR7 ag: -2; NPYLR7 ag max-min: 23

Results for CN(Cc1cccc(C(N)=O)c1)c1ncc(C(N)=O)cc1Cl ?
NPYLR7 ag: -8; NPYLR7 ag max-min: -7

What do the screens show for `CC(NC(=O)CSC12CC3CC(CC(C3)C1)C2)C(=O)N(C)C` (stereo not drawn)?
NPYLR7 ag: 5; NPYLR7 ag max-min: -3

What do the screens show for `CCc1nc2n(n1)C(=O)C(C(c1cccc(F)c1)N1CCC(C(N)=O)CC1)S2` (stereo not drawn)?
NPYLR7 ag: -1; NPYLR7 ag max-min: 9

How did O=C(Nc1ccc(N2CCCC2)nc1)c1ccc(OC(F)F)cc1 do in these assays?
NPYLR7 ag: 3; NPYLR7 ag max-min: 2

Results for CC1NC(=S)N(Cc2ccc(-n3ccnc3)nc2)C1=O (stereo not drawn) ?
NPYLR7 ag: 7; NPYLR7 ag max-min: 4

Results for Cc1ccc(F)c(NS(=O)(=O)c2cnc(C(C)C)[nH]2)c1C(=O)O ?
NPYLR7 ag: 1; NPYLR7 ag max-min: 158

Results for CCN(CC)C(=O)Oc1ccc2c(ccn2Cc2cccc(C(F)(F)F)c2)c1-c1ccc(F)c(F)c1 ?
NPYLR7 ag: 8; NPYLR7 ag max-min: 0

Results for COc1ccc(C2c3cccn3CCN2C(=O)NCc2ccccc2)cc1OC (stereo not drawn) ?
NPYLR7 ag: 8; NPYLR7 ag max-min: 4

How did Cc1nn(C)c(C)c1S(=O)(=O)N1CCCN(c2ccc(C#N)cc2)CC1 do in these assays?
NPYLR7 ag: -4; NPYLR7 ag max-min: -3

Results for Cn1cccc1CN(C(=O)NCc1cccc2ccccc12)C1CC1 ?
NPYLR7 ag: 8; NPYLR7 ag max-min: 7

How did Cc1cc(C)cc(NC(=O)CCCn2nc(-c3ccc(F)cc3)ccc2=O)c1 do in these assays?
NPYLR7 ag: -2; NPYLR7 ag max-min: -1

Results for COCCN(Cc1nc(C(=O)O)cs1)C(=O)Nc1ccc(Cl)c(Cl)c1 ?
NPYLR7 ag: -7; NPYLR7 ag max-min: -18

What do the screens show for `O=C(NCc1ccccc1CN1CCCC1)C1CCCN(C(=O)C2CC2)C1` (stereo not drawn)?
NPYLR7 ag: -4; NPYLR7 ag max-min: -2

Results for CCOC(=O)c1c(NC(=O)C2CCC2)sc(C)c1C ?
NPYLR7 ag: 7; NPYLR7 ag max-min: 4

How did COc1ccc(-n2c(=O)[nH]c3c(C(N)=O)nc(-c4cccnc4)nc32)c(OC)c1 do in these assays?
NPYLR7 ag: 21; NPYLR7 ag max-min: 9

Results for OCCn1c(-c2ccc3c(c2)CCO3)nc2ccccc21 ?
NPYLR7 ag: 3; NPYLR7 ag max-min: 0

What do the screens show for `C=C1c2ccccc2C(=O)N1CCC(=O)N(CC)CC(=O)NCc1ccc(Cl)cc1`?
NPYLR7 ag: -1; NPYLR7 ag max-min: -2

How did CCOC(=O)N1CCN(C(=O)Cc2csc(NC(=O)CN(C(=O)c3ccccc3C)C3CC3)n2)CC1 do in these assays?
NPYLR7 ag: -3; NPYLR7 ag max-min: -1

How did Cc1ccc(Cc2nsc(N(CCC(=O)NCc3ccc4c(c3)OCO4)CC(C)C)n2)cc1 do in these assays?
NPYLR7 ag: -4; NPYLR7 ag max-min: 4

Results for CC(C)c1cc(C(=O)N2CCCC(C(=O)Nc3cccc(-c4ccc(F)cc4)c3)C2)on1 (stereo not drawn) ?
NPYLR7 ag: -5&6; NPYLR7 ag max-min: -8&3

Results for Cc1cc(S(C)(=O)=O)c(C)c(S(=O)(=O)Nc2cnn(C)c2)c1 ?
NPYLR7 ag: -1; NPYLR7 ag max-min: -2

Results for Cc1ccc(-c2ccc(OCCNS(=O)(=O)N(C)C)nn2)cc1 ?
NPYLR7 ag: -5; NPYLR7 ag max-min: -12

Results for Cc1c(C(=O)N2CCN(C(=O)N(C)C)CC2)cc(-c2ccc(Cl)cc2)n1-c1ccccc1 ?
NPYLR7 ag: 0; NPYLR7 ag max-min: 11

What do the screens show for `CC(C)CN(CC(=O)N(CCc1c[nH]c2ccccc12)Cc1ccc(C(C)(C)C)cc1)C(=O)c1ccc(Cl)cc1Cl`?
NPYLR7 ag: -1; NPYLR7 ag max-min: 7

What do the screens show for `S=c1oc2cc(Cl)ccc2n1CN1CCN(c2ccccn2)CC1`?
NPYLR7 ag: 1; NPYLR7 ag max-min: -5

Results for CCN(C1=NC2CS(=O)(=O)CC2S1)c1ccc(C)c(Cl)c1 (stereo not drawn) ?
NPYLR7 ag: 5; NPYLR7 ag max-min: 1

How did CCN(CC)CCOc1ccc2nc(N(C)C)sc2c1 do in these assays?
NPYLR7 ag: -26; NPYLR7 ag max-min: -33

How did COc1ccc(-c2csc(-n3[nH]c(-c4ccccc4)c(N=Nc4ccc(Cl)cc4Cl)c3=O)n2)cc1 do in these assays?
NPYLR7 ag: 17; NPYLR7 ag max-min: 28

What do the screens show for `CCN(CCC#N)c1ccc(/C=C2/C(=O)Nc3ccc(Cl)cc32)c(C)c1`?
NPYLR7 ag: 0; NPYLR7 ag max-min: -8

Results for CN(C)CCCN(C(=O)COc1ccc(Cl)cc1)c1nc2cc3c(cc2s1)OCO3 ?
NPYLR7 ag: 0; NPYLR7 ag max-min: -2

What do the screens show for `Cc1nnc2c(Nc3ccccc3I)nc3nonc3n12`?
NPYLR7 ag: 11; NPYLR7 ag max-min: 10

How did Oc1c(Cl)cc(Cl)c2ccc(N/N=C\c3cccnc3)nc12 do in these assays?
NPYLR7 ag: -5; NPYLR7 ag max-min: -8

How did CC(C)c1ccc(-n2nnnc2SC(C)c2nnc(-c3ccc([N+](=O)[O-])cc3)o2)cc1 (stereo not drawn) do in these assays?
NPYLR7 ag: 7; NPYLR7 ag max-min: 6

What do the screens show for `Cc1cc(C=C2SC(N)=NC2=O)c(C)n1C1CC1`?
NPYLR7 ag: 4; NPYLR7 ag max-min: 1

How did Cc1cc(C)c2c(c1C(=O)NCCSC1Sc3ccccc3NC1=O)CC(C)(C)C2=O (stereo not drawn) do in these assays?
NPYLR7 ag: -12; NPYLR7 ag max-min: -20

How did Cc1cc(Cl)ccc1OCc1nc(-c2ccc(Cl)cc2)no1 do in these assays?
NPYLR7 ag: -4; NPYLR7 ag max-min: -10

Results for Cc1cccc(NC(=O)N2CCSC2c2ccc(C(F)(F)F)cc2)c1C (stereo not drawn) ?
NPYLR7 ag: 13; NPYLR7 ag max-min: 21

What do the screens show for `C=CCN(CC1CC(c2ccccc2C)=NO1)C(=O)C1CCC1` (stereo not drawn)?
NPYLR7 ag: 12; NPYLR7 ag max-min: 26

What do the screens show for `Fc1ccccc1CC1CCN(Cc2nc(-c3ccccn3)no2)CC1`?
NPYLR7 ag: -9; NPYLR7 ag max-min: -8

What do the screens show for `CCc1ccc(-n2nc(C(=O)C(C#N)C(=O)NC)c3c2CCC3)cc1` (stereo not drawn)?
NPYLR7 ag: 3; NPYLR7 ag max-min: 1

How did Cc1cc(C)n(C(=O)C(Cc2ccccc2)N2C(=O)C3CCCCC3C2=O)n1 (stereo not drawn) do in these assays?
NPYLR7 ag: 10; NPYLR7 ag max-min: 2

Results for O=C(NC1CC1)c1ccc(CSc2nnc(Cc3ccccc3)n2-c2ccccc2F)cc1 ?
NPYLR7 ag: 14; NPYLR7 ag max-min: 16

How did COC(=O)c1cc2n(n1)CCCN(C(=O)CCn1nnc3ccccc31)C2 do in these assays?
NPYLR7 ag: 6; NPYLR7 ag max-min: 4

What do the screens show for `CN(C)S(=O)(=O)c1ccc(Cl)c(C(=O)Nc2ccccc2C(=O)N2CCOCC2)c1`?
NPYLR7 ag: -2; NPYLR7 ag max-min: -4

Results for CC(=O)c1cc(CC(=O)NCc2ccco2)cs1 ?
NPYLR7 ag: -4; NPYLR7 ag max-min: -7

Results for CCc1nc(CCNC(=O)c2cccc(C#N)c2)sc1C ?
NPYLR7 ag: 11; NPYLR7 ag max-min: 4

What do the screens show for `CC(C)SC(NC(=O)OCc1ccccc1)C(=O)NCC(c1ccccc1)c1ccccc1` (stereo not drawn)?
NPYLR7 ag: 2; NPYLR7 ag max-min: -4

Results for COc1cc(OC)cc(N2CCN(C(=O)c3ccccc3F)C(C)C2=O)c1 (stereo not drawn) ?
NPYLR7 ag: 13; NPYLR7 ag max-min: 27

How did O=C(c1cc2c(=O)n3ccccc3nc2s1)N1CCCC1 do in these assays?
NPYLR7 ag: 20; NPYLR7 ag max-min: 36
